RN4220 kill = S. aureus RN4220 growth inhibition; OD600, 16 h; inhibition, % (no concentration beside the values); 330,000 compounds, 0.33% hits; AID 1259311;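 active means z-score of -3 or lower and OD600 up to 0.18 on both plates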;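 further: plate controls were untreated cells for no effect and reference antibiotic for full effect; stock transfer was 100 nL into about 80 µL; one replicate is shown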
BJeLR viability = BJeLR cell viability loss | BJeLR (HRASV12) viability, CellTiter-Glo ATP luminescence, 48 h; reference of the scale not given here | inhibition, % (no concentration beside the values) | 300,000 compounds, 0.17% hits | AID 1554;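 active means replicate mean above 50%; inconclusive means above 50% but judged a plate artefact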;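 further: 50 nL library stock added to about 25 µL; numbers are from one replicate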
Mtb hypoxia rep = inhibitors of hypoxia-regulated fluorescent reporter in Mycobacterium tuberculosis; M. tuberculosis hypoxia-regulated fluorescent reporter, fluorescence; fluorescence inhibition, % (concentration not given with the values); 300,000 compounds, 0.1% hits; AID 1159583;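 active means 35 to 45% if threefold the growth effect, above 45% if 1.5-fold the growth effect; inactive means the rest, general growth blockers included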;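 further: wells of about 50 µL received 100 nL stock; 0% = vehicle wells and 100% = reference inhibitor wells; whole bacteria with a GFP reporter of the hypoxia response; strong numbers were not always called active; many hits fall short of the cut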
PrP UTR inh = suppresses PrP 5' UTR mRNA reporter expression; AID 488862; cell-based PrP 5' UTR mRNA reporter, plate reader; 340,000 compounds, 0.35% hits; inhibition, % (no concentration beside the values);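 active means every replicate at 50% or more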;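 further: 0 = median of the neutral control wells; tested in H4 reporter cells; numbers are from one replicate; inactives centre near -14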
Sa ugtP lethal = kills S. aureus RN4220 lacking UgtP; S. aureus RN4220 ugtP deletion, OD600 growth, 16 h; some inactives read as strong as hits; growth inhibition, % (concentration not given with the values); 330,000 compounds, 0.54% hits;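 active means z-score under -3 and OD600 up to 0.15 on both plates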;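 further: plate controls were untreated wells for no effect and antibiotic for full effect; wells of about 80 µL received 100 nL stock; the first replicate is given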
Autofluor counter = counter-screen for toxin protease inhibitors: compound fluorescence; fluorescence intensity (test concentration not listed); compound autofluorescence counterscreen, microsphere flow cytometry; hits give high values; 360,000 compounds, 3.1% hits;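 active means at least 3 SD above the mean of all compounds, about 16000 in these data; inconclusive means too few beads counted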;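 further: 100 nL of 1 mM stock went into each well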
Mtb hypoxia rep growth = recorded beside Mtb hypoxia rep, whose call it bears; growth inhibition, %; measured here: M. tuberculosis growth (absorbance);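 0% = vehicle and 100% = reference antibiotic; read after six days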
* marks the source's active call; other numbers are inactive results; ? = inconclusive; / = no result given.

Compound	RN4220 kill	BJeLR viability	Mtb hypoxia rep	Mtb hypoxia rep growth	PrP UTR inh	Sa ugtP lethal	Autofluor counter
CCOC(=O)N1CCC(NC(=O)c2cc3c(=O)[nH]c4ccccc4c3n2C)CC1	4.7	1	-3	3	-34	0	4568
O=C(O)CC1(c2ccc(F)cc2)C2CC3CC(C2)CC1C3 (centres undefined)	9.0	3	-16	-5	-16	-8	3828
C=CCN1C(=O)C2(OCCCO2)c2ccccc21	-1.6	-2	11	10	-22	8	3449
COc1ccc(C(C)=O)cc1COc1cccnc1[N+](=O)[O-]	-2.9	11	8	4	-34	5	5032
CC(C)(C)c1ccc(Cn2c(=O)cnc3ccccc32)cc1	2.4	11	-2	25	19	0	5362
O=C(CCCN1C(=O)C(c2ccccc2)Oc2cccnc21)Nc1cccc(F)c1 (centres undefined)	1.4	5	2	6	-11	-1	5432
O=C(Nc1cccc(C(=O)N2CCCC2)c1)c1ccccc1Cl	1.1	-14	2	-2	-9	3	8210
CC(=O)OC1COC(n2ccc3cc([N+](=O)[O-])ccc32)C(OC(C)=O)C1OC(C)=O (centres undefined)	4.5	1	5	10	-20	-4	3038
COc1ccccc1/C=N/NC(=O)CSc1ccc2ccccc2n1	/	8	/	/	-13	/	3049
O=C(COc1ccc2c3c(c(=O)oc2c1)CCCC3)NCCCN1CCOCC1	-1.4	-2	2	8	4	-2	4239
CCC(C)N(C)C1CCN(C(=S)Nc2cccc(OC)c2)CC1 (centres undefined)	5.4	-1	9	5	-11	1	4563
COCc1cc(N2CCN(c3ccccc3F)CC2)nc(-c2ccccc2)n1	1.2	-8	9	-9	-20	3	3759

Retrieved by compound from the list above (three):
Compound	RN4220 kill	BJeLR viability	Mtb hypoxia rep	Mtb hypoxia rep growth	PrP UTR inh	Sa ugtP lethal	Autofluor counter
CCOC(=O)N1CCC(NC(=O)c2cc3c(=O)[nH]c4ccccc4c3n2C)CC1	4.7	1	-3	3	-34	0	4568
CCC(C)N(C)C1CCN(C(=S)Nc2cccc(OC)c2)CC1 (centres undefined)	5.4	-1	9	5	-11	1	4563
O=C(CCCN1C(=O)C(c2ccccc2)Oc2cccnc21)Nc1cccc(F)c1 (centres undefined)	1.4	5	2	6	-11	-1	5432

Later entries.
Compound	RN4220 kill	BJeLR viability	Mtb hypoxia rep	Mtb hypoxia rep growth	PrP UTR inh	Sa ugtP lethal	Autofluor counter
CC1(C2CC2)NC(=O)N(CC(=O)Nc2ccccc2C#N)C1=O (centres undefined)	1.4	/	9	7	-14	1	4514
O=C(NNC(=O)c1cc(-c2ccccc2)nn1-c1ccccc1)c1ccccc1	-2.7	-2	10	8	-7	11	2711
CSc1nc2nc3c(cn2n1)C(=O)CC(c1ccccc1)C3 (centres undefined)	2.2	1	9	7	-7	8	10943
O=C(CC1CCCC1)Nc1cc(S(=O)(=O)N2CCOCC2)ccc1O	6.8	/	5	5	-13	7	5096
Cc1cn2c(nc1=O)OC1C(O)C(COC(=O)c3ccccc3)OC12 (centres undefined)	-4.0	-13	-7	2	-12	-1	8009
Cc1nc([N+](=O)[O-])c(Sc2nc3ccc([N+](=O)[O-])cc3[nH]2)n1Cc1ccccc1	11	1	10	6	-29	8	8684
COc1ccc(/C=C(/NC(=O)c2ccccc2)C(=O)N2CCCC2)cc1OC	1.7	-5	1	8	-3	11	6072
COC(=O)c1ccc(CSc2nc3c(c(=O)n2-c2ccc(F)cc2)SCC3)o1	24	12	3	9	-17	3	7945
CC1c2cc3c(cc2CCN1C(=O)c1ccc(C(F)(F)F)cc1)OCCCO3 (centres undefined)	0.9	4	-4	6	-13	3	5065
NS(=O)(=O)c1ccc(CCNC(=O)Cc2c[nH]c3ccccc23)cc1	6.2	-20	11	4	-31	5	9511
Cc1cc(C)cc(NC(=O)C(OC(=O)c2ccc(O)cc2)c2ccccc2)c1 (centres undefined)	-0.2	/	10	4	-21	-8	/
COC(C(=O)N/N=C(\C)c1ccc(C)cc1)c1ccccc1 (centres undefined)	/	1	/	/	-50	/	3394
CCn1c(=O)cc(SCC(=O)N2CCC3(CC2)OCCO3)c2ccccc21	-3.0	0	3	9	13	4	7795
COCCCN1C(=O)N(c2ccccc2)C(=O)C1CC(=O)Nc1ccccc1 (centres undefined)	3.1	-1	9	7	-15	5	3923
Cc1cccc(/N=C/c2c(O)ccc3oc4c(c23)CCCC4)n1	/	-8	/	/	-12	/	2555
Cc1cc(Br)ccc1OCC(=O)NNC(=O)c1ccc(NC(=O)C2CC2)cc1	0.2	-10	2	-1	-13	-3	4295
COc1ccc(/C=C/C(=O)Oc2cccc(/C=N/NC(=O)Cc3ccc(Br)cc3)c2)cc1	/	3	/	/	-21	/	5674
Cc1cccc(-n2cnc3cc([N+](=O)[O-])ccc32)c1	2.6	12	7	6	-23	-7	10368
COc1ccc2nc(N/C(N)=N/S(C)(=O)=O)nc(C)c2c1	3.2	12	6	20	-30	10	4586
COc1cccc(CNc2nc3nc(C)c(Cl)c(=O)n3[nH]2)c1	3.4	8	14	12	-8	1	3922
NC(=O)c1ccccc1NS(=O)(=O)c1cccs1	3.0	3	/	/	-9	7	2838
COc1ccc(N(CC(=O)Nc2cccc(SC)c2)S(C)(=O)=O)cc1Cl	-1.2	-3	2	-3	-60	1	3280
COc1cccc(NC(=O)C(=O)NN=C(C)CC(=O)Nc2ccc(NC(C)=O)cc2)c1	3.1	/	9	-5	/	8	/
C=CCn1c(CC(=O)OC)csc1=Nc1ccc(C(C)=O)cc1	4.6	-3	10	-1	-55	4	8838
CC1CCCCN1CCNC(=O)c1ccc2c(=O)n(Cc3ccc(Cl)cc3)c(=S)[nH]c2c1 (centres undefined)	-6.6	11	6	7	-11	-13	10582
COc1cccc(/C=N/Nc2nnc(C)n2N)c1OCc1ccccc1Cl	/	5	/	/	-20	/	2425
NCC(=O)NCC(=O)OCc1ccccc1	2.6	-3	11	12	-25	2	4586
CSc1nc(C)c2c(n1)N(c1cccc(C)c1)CC2	-0.5	-8	20	9	-7	-7	2466
COc1ccc(-n2c(C)cc(-c3cn4cccc(C)c4n3)c2C)cc1	7.6	3	0	0	-14	-2	4168
C#CCSc1nccc(-c2nn(-c3ccc(C)cc3)ccc2=O)n1	5.4	4	/	/	-5	1	3116
COC(=O)c1sc(S(=O)(=O)NC(Cc2ccccc2)C(=O)O)c(C(=O)OC)c1C (centres undefined)	3.9	/	3	6	-28	4	3768
CC(=O)Nc1ccc(-c2csc(NC(=O)CCNC(=O)c3ccco3)n2)cc1	-1.2	/	5	-12	-28	1	4015
Cc1ccc(NC(=O)Cn2nc(C(F)(F)F)c3c2CCC3)cc1	-5.2	18	-4	5	-40	-7	10603
COc1ccccc1CN(C)C(=O)C(NC(=O)Cc1cccc2ccccc12)C(C)C (centres undefined)	/	-17	/	/	-9	/	3760
COCCCN1C(=O)C(=O)/C(=C(/O)c2ccc(OC(C)C)cc2)C1c1cccnc1 (centres undefined)	/	-3	/	/	-23	/	3520
CCCCNC(=O)C1CC(c2c(Cl)cccc2Cl)=NO1 (centres undefined)	/	-3	/	/	-4	/	3569
C=CCOc1ccc(Cl)cc1C(=O)O	5.7	-2	/	/	-15	11	3550
Cc1ccsc1C=NNC(=O)CNC(=O)c1ccc(S(=O)(=O)N2CCOCC2)cc1	0.3	/	-10	-5	/	-4	/
Cn1c(CNc2cccc(C(F)(F)F)c2)n[nH]c1=S	3.4	0	9	-2	-31	-1	4965
O=[N+]([O-])c1ccc(Cl)cc1N1CCCCC1	7.8	-3	8	3	6	3	3373
O=C(NC(=S)NCCN1CCOCC1)c1ccccc1Br	3.8	4	4	7	-7	9	2440
COc1cc(/C=N/N2CCN(c3ccc(Cl)cc3)CC2)cc(OC)c1OC(C)=O	/	-7	/	/	-14	/	3366
O=C(CCC(=O)NNC(=O)c1ccc([N+](=O)[O-])cc1)NCc1ccccc1	3.6	7	9	1	-10	5	4807
S=C(NCCc1ccncc1)Nc1ccccc1	5.4	-2	20	3	-16	10	4642
FC(F)(F)c1cccc(C=NNC(=S)NC2CCCCC2)c1	1.7	/	-10	-13	/	-1	/
CCCc1[nH]nc2c1C(c1ccc(Br)s1)C(C#N)=C(N)O2 (centres undefined)	6.1	0	/	/	-9	-2	2791
O=C(CSc1nnnn1-c1ccccc1)NCc1ccco1	0.9	0	4	8	-19	3	2571
Cc1ccc2cccc(NC(=S)NC(=O)c3ccccc3)c2n1	20	-9	6	17	0	58	4664
C/C(C=Nn1c(C2CCCCC2)n[nH]c1=S)=C\c1ccccc1	10	/	2	7	/	17	/
c1ccc(-c2cccs2)nc1	0.9	3	7	-3	-2	4	4390
O=S(=O)(NCC1CCN(S(=O)(=O)c2ccccc2)CC1)c1ccccc1	22	13	14	5	-1	0	4032
CO/N=C/C(=N\Nc1ccc(C)cc1)C(=O)c1ccc(OC)cc1	/	12	/	/	8	/	2386
Cc1cc(=O)oc(C)c1C(=O)NCCC(C)C	2.1	8	5	4	-5	-4	22899*
O=C(Nc1ccccc1C(F)(F)F)c1ccsc1	6.9	5	-1	5	-2	1	3871
CCC(C)(C)n1nnnc1C(c1ccncc1)N1CCC(Cc2ccccc2)CC1 (centres undefined)	4.4	5	-4	3	-19	4	?
CN(CC(=O)Nc1c(Cl)cccc1Cl)C(=O)c1cc2ccccc2cc1O	0.1	0	0	0	-3	-1	5001
Cn1c2ccccc2c2c(C(=O)N3CCC4(CC3)OCCO4)cn(C3CCCCC3)c(=O)c21	3.0	2	/	/	-20	3	2752
Cc1cc(C)c(C)c(S(=O)(=O)Nc2ccc(C(=O)N3CCCC3)cc2)c1C	1.4	3	7	1	-30	4	5394
O=C(CCc1ccccc1)NC1CCCc2ccccc21 (centres undefined)	/	4	/	/	2	/	5669
COc1ccccc1OCC(=O)NCCNC(=O)COc1ccccc1OC	5.3	5	0	4	-35	0	8103

Further entries.
Compound	RN4220 kill	BJeLR viability	Mtb hypoxia rep	Mtb hypoxia rep growth	PrP UTR inh	Sa ugtP lethal	Autofluor counter
CCOc1ccc(S(=O)(=O)NC(C)C(=O)NC2CCCC2)cc1 (centres undefined)	2.9	-1	3	-2	1	8	?
COCCn1nnnc1C(c1ccc(O)c(OC)c1)N1CCc2ccccc2C1 (centres undefined)	-1.9	-3	/	/	-38	-3	2426
OCCC1CN(Cc2cccn2-c2ncccn2)CCN1CCc1ccccc1 (centres undefined)	-0.8	4	-4	4	-10	5	4426
CCOC(=O)C1=C(COC(=O)c2cc(OC)c(OC)c(OC)c2)NC(=O)NC1C (centres undefined)	4.2	3	5	-7	-9	1	6096
Cc1ccc(-c2c[n+](=O)c3c(n2[O-])CCC3)cc1	2.6	2	-3	0	-4	6	3785

Source: PubChem BioAssay
